HNF4A DNA FP: change in binding of human HNF4 alpha to DNA | activity change, % at 10 µM | HNF4a-FITC DNA binding, fluorescence polarization, 1 h | 0.3% of 360,000 active | AID 1224865 | P41235; in the data active means activity change above about 30%, passing the limit was not always enough;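 further: controls were the assay level and a saturating level of protein; the project sought stronger binding though the title names inhibitors; some compounds called inactive have numbers as strong as hits; positive values seem to mean higher polarization but the record does not say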
Beta2AR agonist: human beta-2 adrenergic receptor agonism by FAP; P07550; Am2.2-beta2AR cells, FAP receptor internalization, flow cytometry; reference of the scale not given here; response, % (concentration not given with the values); 0.43% of 340,000 active; AID 504454;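 active means response above a set limit, near 3 SD of response in nonfluorescent compounds, cut at about 42% in these data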;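 further: stock transfer was 100 nL into about 11 µL; a reference agonist was the positive control; negative values mostly stem from fluorescent compounds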
Ecoli growth: E. coli growth inhibition. Escherichia coli growth, OD600, 23 h; hits give low values. AID 1053175. 0.21% of 330,000 active. OD600 absorbance (concentration not given with the values);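 active means OD600 absorbance below the run mean of sample wells minus 3.6 SD, in any replicate, cut at about 0.56 in these data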;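 further: stock transfer was 300 nL into about 60 µL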
ALR H2O2 inh: inhibitors of human sulfhydryl oxidase ALR; 3.8% of 290,000 active; inhibition, % (no concentration beside the values); purified ALR, DTT oxidation, H2O2 HRP-luminol luminescence; AID 485317; P55789;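 active means mean and each replicate at 75% or more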;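 further: stock transfer was 7.5 nL into about 7.5 µL; 0% = neutral wells and 100% = wells with inactivated enzyme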
FGF22 binding: binders of recombinant human FGF22 by thermal shift; calls only at 9.99 µM; SYPRO orange fluorescence; percent of sucrose octasulfate shift, DMSO zero; Q9HCT0; 1.5% of 340,000 active;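 active means melting point raised past a set limit in the mean and every replicate; three in four hits are not shown here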
LANA-H2A inh: blocks KSHV LANA binding to histone H2A/H2B | Q9QR71 | cell-free LANA-H2A/H2B peptide, fluorescence polarization | inhibition, % (no concentration beside the values) | 0.6% of 320,000 active; in the data active means inhibition mostly above about 10%, no sharp cut-off; inactive means mostly below about 6.7%;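 further: stock transfer was 7.5 nL into about 10 µL; 0% = median of vehicle wells and 100% = median of positive control wells; one replicate is shown; the record names a cut of 25% in any replicate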
Target sequence (Q9QR71 whole entry, looked up): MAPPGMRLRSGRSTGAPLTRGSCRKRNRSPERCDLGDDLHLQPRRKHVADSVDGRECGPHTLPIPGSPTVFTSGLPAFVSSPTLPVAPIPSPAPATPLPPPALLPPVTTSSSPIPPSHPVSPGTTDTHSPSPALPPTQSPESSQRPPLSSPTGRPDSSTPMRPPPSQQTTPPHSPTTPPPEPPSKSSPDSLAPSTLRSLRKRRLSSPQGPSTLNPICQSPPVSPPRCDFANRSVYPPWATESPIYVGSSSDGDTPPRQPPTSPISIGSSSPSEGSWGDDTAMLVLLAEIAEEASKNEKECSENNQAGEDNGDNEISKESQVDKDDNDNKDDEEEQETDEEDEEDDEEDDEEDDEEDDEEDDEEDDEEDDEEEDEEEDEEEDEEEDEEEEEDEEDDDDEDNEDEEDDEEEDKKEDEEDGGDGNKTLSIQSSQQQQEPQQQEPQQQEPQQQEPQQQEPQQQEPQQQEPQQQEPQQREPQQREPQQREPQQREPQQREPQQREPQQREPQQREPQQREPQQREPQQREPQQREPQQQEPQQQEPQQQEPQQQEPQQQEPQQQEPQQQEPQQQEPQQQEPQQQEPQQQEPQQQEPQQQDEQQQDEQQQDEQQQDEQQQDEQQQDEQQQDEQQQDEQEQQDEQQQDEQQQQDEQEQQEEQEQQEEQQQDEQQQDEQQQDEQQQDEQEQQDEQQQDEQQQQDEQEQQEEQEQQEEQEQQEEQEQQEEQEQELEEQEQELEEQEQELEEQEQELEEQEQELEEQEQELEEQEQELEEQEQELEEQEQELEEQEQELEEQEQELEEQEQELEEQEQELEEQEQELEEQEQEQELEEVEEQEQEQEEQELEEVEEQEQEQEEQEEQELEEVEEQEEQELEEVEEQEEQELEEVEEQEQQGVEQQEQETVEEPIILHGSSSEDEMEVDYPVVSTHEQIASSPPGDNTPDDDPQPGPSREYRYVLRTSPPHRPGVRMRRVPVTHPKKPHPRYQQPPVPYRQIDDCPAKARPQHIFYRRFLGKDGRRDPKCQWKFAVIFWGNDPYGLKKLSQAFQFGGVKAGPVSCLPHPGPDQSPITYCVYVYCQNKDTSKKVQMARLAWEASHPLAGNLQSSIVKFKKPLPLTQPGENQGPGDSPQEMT
UCH37 inh: human UCH37 deubiquitinating enzyme inhibition; purified proteasome/UCH37, Ub-AMC cleavage fluorescence; Q9Y5K5; AID 588478; inhibition, % (test concentration not listed); 0.33% of 330,000 active;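 active means mean of two replicates above 20%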;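 further: 0% = compound-free wells with enzyme and 100% = wells lacking proteasome; stock transfer was 100 nL into about 20 µL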
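Material: human UCH37 enzyme supplied as purified proteasome complex. Measure: % inhibition of Ub-AMC cleavage fluorescence. Medium: pH 7.4 Tris-HCl (50 mM) with ovalbumin, ATP-MgCl2, DTT. Times: 30 min preincubation with enzyme, 25 min cleavage at room temperature. Detection: AMC fluorescence intensity at 355/460 nm.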
An asterisk follows results filed as active; i = inactive; . = no result given. Not all compounds are listed. The share of hits here may be higher or lower than overall.

Molecule	HNF4A DNA FP	Beta2AR agonist	Ecoli growth	ALR H2O2 inh	FGF22 binding	LANA-H2A inh	UCH37 inh
COC(=O)[C@@H]1C[C@@H]2CC[C@@H](O)C[C@@H]2N1Cc1ccccc1OS(=O)(=O)c1ccc(C)cc1	26.1	-2.7	.	-31.5	i	0.3	0.9
Cn1c(CN2CCCCC2)nc2cc(NC(=O)c3ccccc3Cl)ccc21	0.8	1.5	0.669	-24.4	i	0.5	-3.3
COc1ccc(/C=C(/NC(=O)c2ccccc2)C(=O)NCc2ccco2)cc1	1.3	1.2	0.673	-3.3	i	-4.8	5.1
COc1ccc(/C=C2\CCn3c2nc2cc(C(=O)O)ccc2c3=O)cc1OC	-2.3	-8.8	0.713	-7.7	i	-3.4	8.8
Cc1nn(C)c(C)c1C1C(C#N)=C(N)OC2=C1C(=O)CCC2 (stereo unspecified)	-2.3	1.9	0.677	.	i	.	1.3
CC(C)OC(=O)Cn1c(-c2ccccc2)c(-c2ccccc2)nnc1=O	-1.3	-6.0	0.737	-5.0	i	-0.1	1.3
CSc1ccc(C#N)cc1NC(=O)c1ccc(Cl)nc1	0.6	4.4	0.686	-0.6	i	1.6	3.6
COc1ccc(Cc2noc(CN3CCC(c4ccncc4)CC3)n2)cc1OC	0.1	2.3	0.662	-6.0	.	-3.2	0.4
Oc1cccc(/C=N/n2c(C3CCCCC3)n[nH]c2=S)c1	-0.4	-0.3	.	12.6	i	1.9	.
CCN(CC)C(=O)Oc1ccc(OC(=O)N(CC)CC)cc1	-1.5	9.9	0.681	-22.5	i	0.0	0.8
O=C(NC(=S)N(CCO)Cc1ccccc1)c1cc(Br)ccc1Cl	-4.5	8.5	0.652	-0.4	i	2.7	3.8
CCCc1nc(-c2cc3ccc(C)cc3[nH]c2=O)no1	-0.1	-19.7	0.704	-5.7	.	2.6	-144.5
O=C(CCSCc1ccccc1Cl)NC1CCCC1	3.3	-2.6	0.663	58.8	.	3.0	-1.9
CCOc1ccc(C(=O)Nc2nnc(NC(=S)Nc3ccccc3)s2)cc1	-1.8	102.8*	.	-3.1	i	0.1	.
COc1ccccc1N(CC(O)CN1CCCC1)S(=O)(=O)c1ccccc1 (stereo unspecified)	-5.1	24.7	0.692	-11.7	i	5.5	0.6
O=c1cc(OCc2ccccc2)cc[nH]1	0.9	-2.7	0.665	.	i	-7.6	0.7
O=C(NCC1CCCO1)C1CCN(S(=O)(=O)N2CCCC2)CC1 (stereo unspecified)	-1.1	-2.1	0.697	-7.7	.	3.1	-0.7
COc1ccc(S(=O)(=O)NCC2CCCN(C(=O)c3cccs3)C2)cc1 (stereo unspecified)	1.2	-5.6	0.663	-23.0	i	4.6	-2.0
O=C(CNC(=O)c1cc(S(=O)(=O)N2CCCCC2)ccc1N1CCOCC1)Nc1ccc(F)c(F)c1	0.6	1.1	0.686	-16.3	i	-4.9	-4.7
CN(C)c1ccc(C(=O)Nc2nnc(C3=COCCO3)o2)cc1	-0.3	3.0	0.685	-0.2	i	-2.3	7.9
Cc1ccc(NC(=O)N(Cc2ccc3c(c2)OCO3)Cc2cc3cc4c(cc3[nH]c2=O)OCCO4)cc1	-1.4	5.5	0.714	-0.7	.	1.2	-2.9
CCN(CC)CCCN(Cc1cc2cc3c(cc2[nH]c1=O)OCO3)C(=S)NCCCOC	-1.8	3.1	0.683	-2.4	i	6.3	-119.8
CCN(CCCNC(=O)CCn1c(=S)[nH]c2cc3c(cc2c1=O)OCO3)c1cccc(C)c1	-0.2	-3.8	0.702	16.6	i	3.1	0.1
CC(C)Cn1cnc2c1c(=O)n(CC(=O)O)c(=O)n2Cc1ccccc1	-1.9	2.9	0.697	-3.4	i	2.0	2.4
COc1ccc(CN2CC(C(=O)NCCCN3CCCC(C)C3)CC2=O)cc1 (stereo unspecified)	-2.7	-4.7	0.639	-0.5	i	-0.8	3.5
O=C1c2ccccc2C(O)N1Cc1ccccc1Cl (stereo unspecified)	2.4	-1.8	0.719	-27.3	i	1.0	5.1
O=C(NCN1CCN(c2ccccn2)CC1)c1cnccn1	-2.8	8.1	0.773	-5.6	.	5.9	-1.4
CCc1ccc(NC(=O)N(CCCN2CCOCC2)C(C)c2cc3cccc(OC)c3o2)cc1 (stereo unspecified)	-1.1	2.2	0.713	-6.0	.	-1.9	-0.3
Cc1nc2sc(C(c3ccccc3)N3CCN(CCO)CC3)c(O)n2n1 (stereo unspecified)	1.9	5.6	0.725	2.7	i	3.0	4.6
CC(=O)Nc1ccc(NC(=O)C2CCCN(C(=O)c3ccc(Cl)cc3)C2)cc1 (stereo unspecified)	-3.4	3.2	0.747	-0.5	i	-9.6	-1.9
COc1ccc(CCn2nnnc2C(c2ccc(C)cc2)N2CCN(C)CC2)cc1OC (stereo unspecified)	2.4	-13.1	0.757	-3.8	.	0.7	-1.1
Cc1ccccc1NC(=S)N(C)CCc1ccccn1	-0.8	6.4	0.644	-6.1	.	-5.0	1.6
CN(C)CCCN1C(=O)C(=O)/C(=C(/O)c2ccncc2)C1c1ccccc1 (stereo unspecified)	-4.2	7.1	.	-1.4	.	-1.6	2.9
Cc1c(CCC(=O)NCCC(=O)O)c(=O)oc2cc3occ(-c4ccccc4)c3cc12	7.9	-3.6	0.688	-0.9	i	-0.3	-14.2
CCOC(=O)c1c(-c2ccc(F)cc2)csc1/N=C/N(C)C	2.7	-0.9	.	10.0	i	-6.3	.
CC(C)CNC(=O)CSc1nnc(CN2CCCCCC2=O)n1-c1ccccn1	0.4	-2.0	0.689	-3.9	.	0.3	3.2
Cc1ccc(S(=O)(=O)Nc2ccnc3ccccc23)cc1	-0.2	8.0	0.672	.	.	3.0	7.3
CC(C)(C)Sc1nc(O)cc(=O)[nH]1	1.4	3.8	0.725	47.8	.	-4.7	1.0
N#Cc1ccccc1S(=O)(=O)N1CCNS(=O)(=O)c2ccccc21	-3.0	-5.0	.	.	i	.	.
Cn1c(=O)c(C(=O)NCCCc2ccccc2)c(O)c2ccccc21	-4.5	-11.6	0.671	23.6	i	-3.1	4.5
Cc1ccc(N(CC(=O)NCc2ccncc2)S(C)(=O)=O)cc1	-2.4	9.6	0.712	-24.1	.	0.9	1.2
COC(=O)CNC(=O)CSc1nc(N)cc(=O)[nH]1	-5.4	-12.4	0.672	-8.6	.	-0.1	0.5
C=C(C)C(=O)Nc1cccc(C2=NOC3(C2)C[C@H](C(N)=O)N(C(=O)c2ccccc2C(=O)c2ccccc2)C3)c1 (stereo partly specified)	-37.8	-5.4	.	.	i	1.5	2.8
COCCNC(=O)c1c[nH]c2ccc(S(=O)(=O)Nc3ccccc3F)cc2c1=O	-5.5	-5.5	0.679	-8.1	i	-3.2	-0.1
CCN(CC)C(=O)CSc1ncnc2c1cnn2-c1ccccc1	4.9	-13.7	0.676	-5.7	.	-1.7	3.2
Cc1cc(S(=O)(=O)Nc2cccc(O)c2)c(C)s1	1.5	3.0	0.744	29.2	.	2.8	3.7
O=C(O)CCCC(=O)N1N=C(c2ccccc2)CC1c1cccs1 (stereo unspecified)	2.1	1.9	0.662	-6.8	i	0.9	1.5
CCCCc1c(O)nc2n(c1=O)CCS2	-1.6	-8.7	0.698	21.8	.	1.3	4.7
O=C(Nc1ccc(F)cc1)c1ccc(CN2CCc3ccccc3C2)cc1	0.1	-6.9	0.71	-0.8	i	0.2	-4.2
Cc1sc2ncnc(SCC(=O)N(C(C)C)C(C)C)c2c1C	1.4	-1.4	0.72	.	i	.	0.7

Later entries
Molecule	HNF4A DNA FP	Beta2AR agonist	Ecoli growth	ALR H2O2 inh	FGF22 binding	LANA-H2A inh	UCH37 inh
CCCC(C)C(=O)Nc1ccncc1 (stereo unspecified)	6.2	4.2	0.682	-13.5	.	2.9	5.0
O=C(Nc1ccncc1)c1c(Cl)cccc1Cl	4.2	1.4	0.68	-11.8	i	7.4	3.5
CCCCN(C(=O)c1cc(S(=O)(=O)N2CCCCCC2)ccc1OC)c1ccccc1	-8.2	3.1	0.687	1.0	i	-5.9	0.6
COC(=O)CC1(C(=O)OC)Oc2ccccc2C(=O)N1c1ccc(F)cc1F (stereo unspecified)	-0.3	-1.1	0.648	-4.9	i	2.8	1.9
COC(=O)c1sc(NC(=O)COc2ccc(C)cc2)nc1C	3.6	-5.1	0.743	-4.8	i	-8.0	4.0
NC(=O)c1oc2ccccc2c1NC(=O)c1ccc([N+](=O)[O-])o1	3.2	7.5	0.488*	.	i	0.9	6.5
Clc1ccccc1COc1ccc(/C=N/n2cnnc2)cc1	2.3	-2.4	.	-1.9	i	-0.9	.
CCC(C(=O)Nc1ccc(S(=O)(=O)N(C)C2CCN(C)CC2)cc1)c1ccccc1 (stereo unspecified)	2.5	8.1	0.665	.	i	-2.2	0.9
Cc1ccc(CNC(=O)CN(C(=O)C2(C)CC(=O)N=C3C=CC=CN32)c2ccccc2F)cc1 (stereo unspecified)	-0.3	-0.2	0.681	1.2	i	10.3	-344.0
O=C(COC(=O)c1ccc2c(c1)OCO2)Nc1ccccc1Cl	3.3	-1.2	0.674	-2.1	i	4.0	-2.8
O=C(Cc1cccc(C(F)(F)F)c1)Nc1ccccc1	0.8	2.2	0.666	-3.2	.	-0.5	0.0
COC(=O)c1cccnc1-n1c(=O)c2cccnc2n(Cc2cccc([N+](=O)[O-])c2)c1=O	2.6	-3.2	.	-30.5	i	3.0	.
CON/C=C(\C=Nc1ccc(Cl)cc1Cl)c1ncc(C(F)(F)F)cc1Cl	-6.3	2.6	0.755	-0.9	.	2.2	0.2
O=C(N/N=C1\CCc2ccccc21)c1ccncc1	1.5	3.1	.	-8.6	i	-0.6	.
CC(C)c1ccccc1NC(=O)Cn1c(-c2ccccc2Cl)nc2ccccc21	-0.6	8.3	0.675	-9.1	.	-3.8	2.5
CC(C)C(NC(=O)c1ccc(Cl)cc1)C(=O)NCC1CCCO1 (stereo unspecified)	0.7	-3.7	0.67	-4.0	i	1.1	0.1
CCOC(=O)C(CCCCCOc1ccc([N+](=O)[O-])cc1)C(=O)OCC	-0.7	2.3	0.624	-6.5	.	3.4	1.3
CS(=O)(=O)Nc1ccc(C(=O)NCCSCc2ccco2)cc1	2.0	1.6	0.693	43.8	.	-3.7	2.7
CCCCC1=NC2(CCCC2)C(=O)N1Cc1ccc(-c2ccccc2-c2nn[nH]n2)cc1	.	.	0.7	-14.6	.	4.1	1.5
COc1ccc(Nc2nccc(N(C)C)c2C#N)cc1	4.6	10.6	0.701	-12.3	i	-8.5	3.2
COc1ccccc1CNc1ncccn1	-1.8	-0.6	0.693	-2.6	i	1.3	-0.4
COc1cccc(N2CC(C(=O)Nc3nnc(SCCC4OCCO4)s3)CC2=O)c1 (stereo unspecified)	-0.1	12.2	0.731	2.8	i	2.7	-0.4
CN(C)S(=O)(=O)n1cc(/C=C(\NC(=O)c2ccccc2Cl)C(=O)N2CCCC2)c2ccccc21	-5.7	2.4	.	-0.3	i	4.0	.
CC(CCN1CCN=C1N(C)C)c1ccccc1 (stereo unspecified)	-2.5	5.6	0.673	30.1	i	3.3	0.1
Cn1c(=NC(=O)c2cnccn2)sc2ccccc21	3.0	0.1	0.718	-26.4	.	-3.9	10.5

Some of these compounds in order of their number in ALR H2O2 inh, largest number first.
Structure	ALR H2O2 inh
Cc1ccc(CNC(=O)CN(C(=O)C2(C)CC(=O)N=C3C=CC=CN32)c2ccccc2F)cc1 (stereo unspecified)	1.2
CCOC(=O)C(CCCCCOc1ccc([N+](=O)[O-])cc1)C(=O)OCC	-6.5
CCCC(C)C(=O)Nc1ccncc1 (stereo unspecified)	-13.5
